High-throughput results: PubChem BioAssay, National Center for Advancing Translational Sciences (NCATS)
miR-21 reporter = miR-21 reporter, rising signal. HeLa miR-21 FLuc reporter, luciferase, 48 h. 340,000 tested, under 10 active. Potency, µM (doses to about 38.3 µM), for the others: at the top dose reporter change, positive = more light. AID 2288; active = well fitted rising curve with a large enough effect; inconclusive = small, poorly fitted or top-dose-only effect; inactive = no such curve, though single readings can be large or run the other way;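 further: % of control where 0% means no effect; miR-21 action dims this reporter so a rising signal means less miR-21 action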
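HeLa cells endogenously expressing miR-21, stably carrying CMV-driven firefly luciferase with a downstream miR-21 binding site, 2000 cells/well. Titrations up to approximately 40 uM, 48 hours; luciferase luminescence read.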
Rango release inh = inhibition of RanGTP-driven Rango-importin beta dissociation; O95149+P62826; Biochemical FRET Rango-importin beta, RanGTP-induced dissociation; Potency, µM (doses to about 46.1 µM), without a hit: top-dose activity change, negative = inhibition; 340,000 compounds, 0.071% hits; AID 540253; active means falling FRET ratio curve, often poorly fitted, with flat reads before Ran was added; inconclusive means other falling curves, or compound fluorescence or quenching; inactive means flat or rising ratio curve;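 further: potency means the concentration at half of the fitted maximal effect; % of control where 0% means no effect; nearly all actives have a fitted effect of over 45% in size; -100% = wells without RanGTP and RCC1; the record marks most hits as doubtful in a second field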
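Two FRET readings bracket the reaction: one 5 min after compound meets Rango–importin beta, another 45 min after RanGTP-RCC1 (0.6 uM Ran, 0.2 uM RCC1, 2 mM GTP) is added. Only the second defines inhibition.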
GLA inh pH 4.5 = blocks human alpha-galactosidase A at pH 4.5 | P06280 | purified enzyme, 4-MU-alpha-Gal fluorescence, pH 4.5 | activity change, negative = inhibition, % at 105 µM | 230,000 tested, under 10 active | AID 1467; inconclusive = small, poorly fitted or top-dose-only inhibition, or a rising curve; inactive = flat fitted curve, though single readings scatter; no compound was filed as active;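 further: 0% = full activity with enzyme and -100% = basal without enzyme; dose as in the result columns while the protocol names 77 µM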
Rango-impB inh = prevents formation of the Rango-importin beta complex; 340,000 compounds, 0.031% hits; Potency, µM (series often up to 92.2 µM), for the others: top-dose inhibition of complex formation; Q14974; Rango CFP/YFP FRET sensor + importin beta, 45 min; active = rising FRET ratio curve, often small or poorly fitted; inconclusive = mostly compound fluorescence or quenching in the first reads; inactive = flat curves in all reads;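 further: potency means the concentration at half of the fitted maximal effect; 0% = DMSO wells and 100% = buffer wells lacking importin beta; nearly all actives have a fitted effect of over 15% in size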
Target sequence (Q14974 whole entry, looked up): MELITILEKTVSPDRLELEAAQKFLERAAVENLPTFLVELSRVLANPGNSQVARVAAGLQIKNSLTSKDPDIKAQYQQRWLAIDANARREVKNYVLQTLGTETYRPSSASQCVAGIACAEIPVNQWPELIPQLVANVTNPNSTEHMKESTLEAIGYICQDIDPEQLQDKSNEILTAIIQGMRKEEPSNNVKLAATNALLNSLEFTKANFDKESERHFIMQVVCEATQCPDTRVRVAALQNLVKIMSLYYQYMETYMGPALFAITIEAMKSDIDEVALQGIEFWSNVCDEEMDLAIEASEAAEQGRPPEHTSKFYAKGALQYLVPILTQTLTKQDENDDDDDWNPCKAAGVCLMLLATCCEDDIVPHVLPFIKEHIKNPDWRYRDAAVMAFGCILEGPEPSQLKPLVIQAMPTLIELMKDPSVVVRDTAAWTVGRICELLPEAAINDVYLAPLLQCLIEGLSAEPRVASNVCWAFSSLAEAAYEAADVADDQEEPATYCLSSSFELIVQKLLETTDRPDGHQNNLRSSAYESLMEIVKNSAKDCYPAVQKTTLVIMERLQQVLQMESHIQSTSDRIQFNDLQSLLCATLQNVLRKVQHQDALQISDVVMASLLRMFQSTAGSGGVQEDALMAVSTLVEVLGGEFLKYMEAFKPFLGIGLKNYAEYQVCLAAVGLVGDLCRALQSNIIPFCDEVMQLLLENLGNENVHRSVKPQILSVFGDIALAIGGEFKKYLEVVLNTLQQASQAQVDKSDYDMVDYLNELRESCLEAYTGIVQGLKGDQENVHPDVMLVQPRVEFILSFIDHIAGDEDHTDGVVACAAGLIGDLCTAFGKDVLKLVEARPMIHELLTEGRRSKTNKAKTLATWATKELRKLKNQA
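Inhibition scored from the CFP 486 nm/YFP 530 nm FRET ratio 45 min after adding 0.125 microM importin beta to 50 nM Rango biosensor preincubated 5 min with compound (room temperature, PBS with DTT, Tween-20, BSA). No-importin wells as positive control.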
Numbers without * were called inactive; u = inconclusive; x = no result given. Some of the compounds tested (hit frequency here may not be typical).

1) CCCCN(C)C(=O)c1cc2cc([N+](=O)[O-])cc(OC)c2oc1=O
2) O=C(NCCCC(=O)N1CCCCC1)c1ccc(Cl)cc1
3) CCOC(=O)c1ccc(N=C2SC(C(=O)NCCc3ccccc3)CC(=O)N2C)cc1 (configuration not stated)
4) Nc1nc2ccc(C(=O)Nc3ccc(N4CCOCC4)cc3)cc2s1
5) C=CCn1c(SCC(=O)NC)nnc1C12CC3CC(CC(C3)C1)C2
6) Cc1cc(=O)[nH]c(Nc2c(C)n(C)n(-c3ccccc3)c2=O)n1
7) CC(C)N1C(=O)CCC1C(=O)N1CCC(Cc2ccccc2)CC1 (configuration not stated)
8) COc1cccc(CNC(=O)C2CCC(CNS(=O)(=O)c3cccc4nsnc34)CC2)c1 (configuration not stated)
compound no.	1	2	3	4	5	6	7	8
miR-21 reporter	0%	1%	0%	x	-1%	-12%	2%	3%
Rango release inh	2%	-9%	9%	-6%	26%	0%	11%	10%
GLA inh pH 4.5	-3	x	-5	x	x	-6	2	-4
Rango-impB inh	1.5%	-0.6%	3.7%	-3.4%	8.6%	-0.9%	0.4%	-2.7%

9) O=C(Cc1ccc(F)cc1)Nc1c2c(nn1-c1cccc(Cl)c1)CS(=O)C2 (configuration not stated)
10) CCOc1ccc(CCNC(=O)COc2cccc(-n3cnnn3)c2)cc1OCC
11) CCCCNC(=S)NNC(=O)C1=NN(c2cc(C)ccc2C)C(=O)CC1
12) Cc1cccc(N2CCN(S(=O)(=O)c3ccc4c(c3)n(C)c(=O)c(=O)n4C)CC2C)c1 (configuration not stated)
13) CCCCn1c(N)c(N(CC(C)C)C(=O)CC(NC(=O)c2ccccc2)c2ccccc2)c(=O)[nH]c1=O (configuration not stated)
14) COC(=O)c1sccc1N/N=C/c1ccc(OC)c(OC)c1OC
15) CC(C)(C)c1ccc(CSc2nnc(-c3ccccn3)n2Cc2ccco2)cc1
16) Cc1ccc(NC(=O)NC2=N/C(=C(/C#N)C(=O)N3CCCC3)c3ccccc32)cc1
compound no.	9	10	11	12	13	14	15	16
miR-21 reporter	-2%	x	6%	1%	x	-80%	15%	-41%
Rango release inh	1%	-6%	14%	-11%	-8%	0%	11%	-3%
GLA inh pH 4.5	-2	x	x	8	x	-8	-15	-2
Rango-impB inh	-1.9%	-0.8%	-3.5%	-0.1%	-0.2%	u	2.4%	-0.2%

Five entries from above, with the structure last.
# | miR-21 reporter | Rango release inh | GLA inh pH 4.5 | Rango-impB inh | SMILES
14 | -80% | 0% | -8 | u | COC(=O)c1sccc1N/N=C/c1ccc(OC)c(OC)c1OC
11 | 6% | 14% | x | -3.5% | CCCCNC(=S)NNC(=O)C1=NN(c2cc(C)ccc2C)C(=O)CC1
15 | 15% | 11% | -15 | 2.4% | CC(C)(C)c1ccc(CSc2nnc(-c3ccccn3)n2Cc2ccco2)cc1
12 | 1% | -11% | 8 | -0.1% | Cc1cccc(N2CCN(S(=O)(=O)c3ccc4c(c3)n(C)c(=O)c(=O)n4C)CC2C)c1 (configuration not stated)
16 | -41% | -3% | -2 | -0.2% | Cc1ccc(NC(=O)NC2=N/C(=C(/C#N)C(=O)N3CCCC3)c3ccccc32)cc1

New compounds follow:
17) CC(=O)N/C(=C\c1ccccc1)C(=O)OCC(=O)c1c(N)n(C)c(=O)n(C)c1=O
18) CC1=C(C(=O)Nc2cc(C(=O)N3CCN(c4cccc(C)c4C)CC3)ccc2C)SCCO1
19) COc1ccc(N(CC(=O)Nc2cc(C)cc(C)c2)S(=O)(=O)c2ccccc2[N+](=O)[O-])c(OC)c1
20) Cc1cccc(NC(=O)CNC(=O)C23CC4CC(CC(Cl)(C4)C2)C3)n1
21) Cc1[nH]c2ccc(Br)cc2c(=S)c1C/C=C/Cl
22) O=S(=O)(C(=CNc1ccccc1)S(=O)(=O)c1ccccc1)c1ccccc1
23) Cc1ccc(N2CCCn3c2cc(C)c(C#N)c3=O)cc1Cl
24) Cc1ccc2cc(C=C(C#N)C#N)c(N3CCCCC3)nc2c1
compound no.	17	18	19	20	21	22	23	24
miR-21 reporter	x	22%	-1%	x	-1%	1%	-5%	-15%
Rango release inh	-11%	11%	-1%	20%	8%	12%	-5%	-12%
GLA inh pH 4.5	x	x	5	x	-9	-2	-4	-1
Rango-impB inh	-1.9%	0.3%	-0.2%	1.2%	5.1%	-4.2%	-1.3%	u

25) Cc1ccnc(SCC(=O)NC2CC2)n1
26) Cc1ccc(S(=O)(=O)N2C(=O)c3cccc4cccc2c34)cc1
27) Cn1cccc1C(=S)N1CCOCC1
28) O=C(NC(=S)Nc1ccccc1)c1cncc(C#Cc2ccccc2)c1
29) Cc1nnc(NS(=O)(=O)c2ccc(Br)cc2)s1
30) COC(=O)[C@H](CCSC)NC(=O)Cn1cnc(C(=O)Nc2ccc(C)c(C)c2)n1
31) Cc1nc2ccc(NC(=O)c3ccc(S(=O)(=O)N4CCOCC4)cc3)cc2s1
32) Cc1cc(Nc2ccc3c(c2)OCCO3)c2ccccc2n1
compound no.	25	26	27	28	29	30	31	32
miR-21 reporter	-6%	18%	-6%	-3%	5%	x	9%	6%
Rango release inh	-6%	4%	8%	11%	7%	-4%	1%	21%
GLA inh pH 4.5	x	-2	9	-11	x	x	12	-8
Rango-impB inh	-1.8%	0.3%	-1.3%	0.5%	-5.2%	-1.5%	2.4%	-4.3%

33) CCOC(=O)CN=C1CC(C)(C)CC2=C1Sc1ncnc(N(C)C)c1N2
34) O=C(NC1CCCCC1)c1cc(S(=O)(=O)N2CCCCC2)ccc1N1CCOCC1
35) COc1ccccc1C(=O)NNC(=O)CCC(=O)NCc1ccccc1
36) OCc1cc(-c2ccccn2)no1
37) Cc1ccc(-n2nc3c(=O)n(C(C)C(=O)NCc4ccc5c(c4)OCO5)nc(C)c3c2C)cc1 (configuration not stated)
38) CS(=O)(=O)N1N=C(c2cccs2)CC1c1ccc(F)cc1 (configuration not stated)
39) O=C(Nc1cc(Cl)cc(Cl)c1)C(NCC1CCCO1)c1ccccc1 (configuration not stated)
40) COc1ccccc1N(CC(=O)NCCSc1ccccc1)S(=O)(=O)c1ccccc1
compound no.	33	34	35	36	37	38	39	40
miR-21 reporter	-9%	x	1%	x	13%	-23%	0%	x
Rango release inh	-3%	5%	31%	10%	18%	-6%	10%	-26%
GLA inh pH 4.5	0	x	x	x	x	3	-6	x
Rango-impB inh	u	0.1%	-2.9%	0.5%	-1.0%	-0.8%	0.2%	4.5%

41) COC(=O)c1scc(C)c1N/N=C(\C)c1ccc(F)cc1
42) O=C(CSc1nnc(NC(=O)c2ccccc2C(=O)O)s1)Nc1ccccc1Cl
43) COc1ccc2nc(NC(=O)c3ccc(Br)s3)sc2c1
44) FC(F)Oc1cccc(NC(=S)N2CCN(c3ccccn3)CC2)c1
45) Nc1c(C(=O)Nc2ccccc2)sc2nc3c(c(-c4ccco4)c12)CCCC3
46) CCc1nnc(NC(=O)CSc2nnc(CNc3ccc(C)cc3)n2C)s1
47) CCC(C)[C@H](NC(=O)N1CCC(Cc2ccccc2)CC1)C(=O)O (some centres not stated)
48) CCC(C)NCC(=O)Nc1ccc(S(N)(=O)=O)cc1 (configuration not stated)
compound no.	41	42	43	44	45	46	47	48
miR-21 reporter	6%	1%	-62%	-12%	-13%	-2%	-5%	-1%
Rango release inh	-9%	-3%	-7%	1%	u	-29%	13%	9%
GLA inh pH 4.5	4	-3	-8	-17	5	-1	x	4
Rango-impB inh	-6.2%	-1.8%	1.3%	0.8%	u	-0.3%	-0.5%	2.9%

49) CCC(=O)Nc1ccc(C(=O)CSc2nnc(-c3ccc(O)cc3)n2CC2CCCO2)cc1 (configuration not stated)
50) Cc1nn(C)c(C)c1/C=N/NC(=O)CCn1nc(C)c([N+](=O)[O-])c1C
51) Cc1cc(Cl)nc2ccc(Cc3ccc4nc(Cl)cc(C)c4c3)cc12
52) CCCCCN(C(=O)CCC(=O)OCc1cccc(Cl)c1)c1c(N)n(CCCC)c(=O)[nH]c1=O
53) CS(=O)(=O)Nc1ccc2c3c(cccc13)CC2
54) CC[C@@H](C)[C@@H]1CN([C@@H](C)CN2CCC[C@H]2CN2C(N)=NC[C@H]2CC(C)C)C(=N)N1CCCC1CCCC1
55) CCCC(=O)NC(=S)N1CCN(c2ccc([N+](=O)[O-])cc2)CC1
56) Cc1ccc(-c2noc(CN(C)C(=O)Nc3ccc(F)cc3)n2)cc1
compound no.	49	50	51	52	53	54	55	56
miR-21 reporter	-6%	-9%	-15%	x	-11%	x	0%	-7%
Rango release inh	18%	0%	9%	-9%	u	-17%	-2%	0%
GLA inh pH 4.5	0	5	3	x	-2	x	-5	-22
Rango-impB inh	-4.5%	-3.1%	-1.1%	-4.0%	2.7%	-1.4%	2.2%	0.9%

2 entries from above, as tab-separated lines.
#	Molecule	miR-21 reporter	Rango release inh	GLA inh pH 4.5	Rango-impB inh
19	COc1ccc(N(CC(=O)Nc2cc(C)cc(C)c2)S(=O)(=O)c2ccccc2[N+](=O)[O-])c(OC)c1	-1%	-1%	5	-0.2%
20	Cc1cccc(NC(=O)CNC(=O)C23CC4CC(CC(Cl)(C4)C2)C3)n1	x	20%	x	1.2%

(more compounds)
57) CCOC(=O)c1cnc2c(C)cc(C)cc2c1NCCCN1CCOCC1
58) O=C1CN2NC(=S)N(c3ccc(Cl)cc3)C2=CN1c1ccc(Cl)cc1
59) COc1ccc(C(=O)NCc2nnc(SCC(=O)Nc3cc(OC)ccc3OC)o2)cc1
60) CCCn1c(NCc2cccc(OC)c2OC)nc2ccccc21
61) Cc1ccccc1C(=O)N/N=C/c1ccc(OCC(=O)N2CCCCC2)cc1
62) Cn1c(SCC(=O)Nc2ccc3c(c2)CCC3)nnc1C1CC1
63) Cc1ccc(NC(=O)CN2CCC(NC(=O)c3cccc(F)c3)CC2)cc1C
64) C=CCn1c(NCc2cc(Cl)ccc2O)nc2ccccc21
compound no.	57	58	59	60	61	62	63	64
miR-21 reporter	29%	1%	1%	-31%	2%	x	-2%	2%
Rango release inh	16%	16%	-1%	2%	3%	2%	-10%	10%
GLA inh pH 4.5	x	7	x	1	1	x	x	x
Rango-impB inh	3.0%	2.0%	-4.9%	-0.3%	0.6%	-0.9%	-0.9%	-0.1%

65) O=C(Nc1ccc(-n2cnnn2)cc1)C1CCCCC1
66) O=C1c2cccnc2C(=O)N1Cc1ccc(S(=O)(=O)N2CCN(c3ccccc3)CC2)cc1
67) CCOc1ccc(-c2noc(CCC(=O)NC3CCCCC3)n2)cc1OC
68) Cc1ccc(-c2nnc(NC(=O)CCS(=O)(=O)c3ccc(F)cc3)o2)c(C)c1
69) CCC1=C/C(=C/c2sc3ccccc3[n+]2CC)CC(C)(C)C1
70) COCCN(C(=O)/C=C/c1ccccc1)c1c(N)n(Cc2ccccc2)c(=O)[nH]c1=O
71) CC(C)NC(=O)NC(=O)COC(=O)Cc1c(F)cccc1Cl
72) CCn1nc(C)c(Br)c1C(=O)Sc1ccccc1Cl
compound no.	65	66	67	68	69	70	71	72
miR-21 reporter	-15%	1%	1%	x	10%	3%	-3%	6%
Rango release inh	4%	31%	2%	-4%	u	0%	-6%	-8%
GLA inh pH 4.5	-4	x	x	x	-5	8	5	-4
Rango-impB inh	0.3%	-0.3%	-2.3%	0.2%	u	-6.9%	0.2%	u

73) CSC1CCCCC1(O)CSc1nc2c(cc1C#N)CCCC2 (configuration not stated)
74) COc1cc2c(cc1OC)[C@H](C)N(C(=O)COc1ccccc1)CC2
75) CC(=O)C1=C(O)C(=O)N(c2cccc(Br)c2)C1c1ccccc1Cl (configuration not stated)
76) COc1ccc(C(CNc2ccc(S(C)(=O)=O)cc2[N+](=O)[O-])N(C)C)cc1OC (configuration not stated)
77) Cc1cccc(C)c1NC(=O)Cn1c(=O)c2cccn2c2ccccc21
compound no.	73	74	75	76	77
miR-21 reporter	-10%	-3%	1%	-7%	0%
Rango release inh	6%	0%	18%	12%	1%
GLA inh pH 4.5	-5	x	x	x	x
Rango-impB inh	-2.3%	-1.9%	-2.0%	u	-2.6%
